Screening results from PubChem BioAssay.
Bst PK mod – Pyruvate Kinase; partly purified Bacillus stearothermophilus pyruvate kinase, luminescence ATP production; ribose 5-phosphate activator present at AC10; Potency, µM; 51,000 tested, 1.2% active; in the data active means potency below about 11 µM; inconclusive means mostly about 12 µM to 25 µM; inactive means weaker than that;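 the screen sought inhibitors and activators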;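 also: potency is read from the fitted curve at half-maximal effect; scaled between full activation by ribose 5 phosphate and full inhibition by luteolin; about four in five hits inhibit and the cells do not say which; series up to 57 µM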
YjeE inh – qHTS Assay for Inhibitors of YjeE; 71,000 tested, 0.05% active; AID 605, 2007; Potency, µM; purified YjeE, fluorescence polarisation of a bound ADP probe; active = well fitted falling curve; inconclusive = weaker or top-dose-only fall, or a rising curve; inactive = flat or poorly fitted curve;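 also: top concentration of the series not given in the record; excess ADP was the control for the full effect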
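Purified YjeE (10 uM) with BODIPY Texas Red-labeled ADP probe (2 uM); compounds pin-transferred, 15 min at room temperature. Binding inhibition read as decreased fluorescence polarization; ADP titration as control.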
* marks the source's active call; other numbers are inactive results; i = inactive; . = not tested or not shown. An excerpt, so the mix of outcomes need not match the whole.

Sample of the layout:
Each structure is followed by: Bst PK mod	YjeE inh
CCCCNC(=O)CCC(=O)Nc1ncc(-c2ccc(C)cc2)n1C
  >57	i
O=S(=O)(NCCc1ccccn1)c1ccc(F)c(F)c1
  .	i
O=C(CON1C(=O)c2ccccc2C1=O)c1ccccc1
  .	i

All compounds of this part, from the first entry:
Each structure is followed by: Bst PK mod	YjeE inh
CCCCNC(=O)CCC(=O)Nc1ncc(-c2ccc(C)cc2)n1C
  >57	i
O=S(=O)(NCCc1ccccn1)c1ccc(F)c(F)c1
  .	i
O=C(CON1C(=O)c2ccccc2C1=O)c1ccccc1
  .	i
O=C(CSc1nnc2scc(-c3ccccc3)n12)NCC1CCCO1 (centres undefined)
  >57	i
COc1nc(OC)nc(N2CCC(C(=O)NCc3cccs3)CC2)n1
  >57	i
Cc1onc(-c2c(F)cccc2Cl)c1C(=O)NCCCN1CCOCC1
  >57	i
Nc1c2c(nc3ccccc13)CCC2
  .	i
Cc1sc2ncn(CC(=O)NCCCC(=O)N3CCN(c4ccccn4)CC3)c(=O)c2c1C
  >57	i
CCOC(=O)CC(=O)CSc1ncnc2c1oc1ccccc12
  .	i
CCOC(=O)c1nnsc1NC(C)=O
  >57	i
OC(c1cccc(OCc2ccccc2)c1)c1nnc(-c2ccccc2)o1 (centres undefined)
  >57	i
CC(=O)Nc1cccc(-c2nnc3n2CC(C)S3)c1 (centres undefined)
  >57	i
O=C(CC(c1ccccc1)c1ccccc1)Nc1ncn[nH]1
  .	i
CCn1cc(C(=O)N2CCCC2)c(=O)c2cc(S(=O)(=O)N3CCOCC3)ccc21
  >57	i
COc1cc2c(=O)n(Cc3ccccc3)c(=O)n(CC(=O)NCc3ccco3)c2cc1OC
  >57	i
CC(C)c1cc(C(=O)Nc2sc3c(c2C#N)CCC3)no1
  >57	i
CN1CCN(c2nc(-c3ccccc3)c3cc(Cl)ccc3n2)CC1
  >57	i
O=C1CC(Nc2ccc(N3CCOCC3)cc2)C(=O)N1Cc1ccccc1 (centres undefined)
  >57	i
COc1ccc(OC)c(C(c2nnnn2Cc2ccccc2)N2CCC(C(N)=O)CC2)c1 (centres undefined)
  >57	i
Cc1cc(C)cc(N(CC(=O)N2CCN(Cc3ccccc3)CC2)S(=O)(=O)c2c(C)noc2C)c1
  .	i
CCOC(=O)N1CCN(c2c(N3CCc4ccccc43)c(=O)c2=O)CC1
  .	i
CCCCC(=O)Nc1ccc(Br)cc1C(=O)O
  .	i
CC1CCN(c2nc(-c3ccc(F)cc3)cc(C(F)(F)F)n2)CC1
  >57	i
CCN1C(=O)c2cccc3c(NS(=O)(=O)c4ccc(NC(C)=O)cc4)ccc1c23
  >57	i
CN(C)c1ccc(-c2nc(Nc3ccncc3)c3ccccc3n2)cc1
  .	i
CCc1ccccc1N(C(=O)CCC(=O)Nc1cc(C)on1)C(C(=O)NC1CCCC1)c1ccco1 (centres undefined)
  >57	i
COc1cccc(NC(=O)c2ccc(CN3CCOCC3)cc2)c1
  .	i
COc1cccc(Nc2ncc3nc(CCc4ccccc4)c(=O)n(CCC#N)c3n2)c1
  .	i
CC(NC(=O)c1cc(-c2ccccc2)on1)c1ccccc1 (centres undefined)
  >57	i
CCOC(=O)COc1cccc2c(=O)n(CC(=O)N3CCc4ccccc43)ccc12
  .	i
COc1ccc(N(CC(=O)Nc2cc(Cl)ccc2OC)S(=O)(=O)c2c(C)noc2C)cc1
  >57	i
CCOC(=O)Nc1ccc(S(=O)(=O)Nc2nccc(C)n2)cc1
  >57	i
CCOC(=O)C1=C(C)NC(=O)NC1c1cccc(O)c1 (centres undefined)
  >57	i
Cc1ccc(N(C(=O)c2cccs2)C2C=CS(=O)(=O)C2)cc1 (centres undefined)
  .	i
Cc1cccc(NC(=O)c2cc(NC(=O)c3ccco3)ccc2Cl)n1
  .	i
CC12CN3CCN(CC(C3)C1(O)CN1CCOCC1)C2 (centres undefined)
  .	i
Cc1nnc(NC(=O)CSc2nnc(Cc3ccccc3)n2-c2ccccc2)s1
  >57	i
COCCn1c(SCC(=O)Nc2cc(Cl)ccc2OC)nc2c(c1=O)SC(C)C2 (centres undefined)
  .	i
CCn1ncc(Br)c1C(=O)Nc1ccc(Cl)cn1
  >57	i
CCOc1ccc2nc(N)sc2c1
  .	i
CCN1CCN(S(=O)(=O)c2ccc(S(=O)(=O)N(CC)Cc3ccccc3)cc2)CC1
  >57	i
O=c1c(-c2ccc(Cl)cc2)nc2cncnc2n1Cc1ccccc1
  .	i
CC(C)c1nnc(NC(=O)CCCC(=O)O)s1
  >57	i
Cc1nc(COC(=O)c2c(C)nn(-c3ccccc3)c2C)cs1
  >57	i
Cc1ccc2oc(=O)c3cc(C(=O)NCCN4CCN(C)CC4)sc3c2c1
  .	i
CC1(C)CNC(=O)c2sc(N3CCCCC3)nc2C1
  >57	i
CC(=O)NCCc1ccc(S(=O)(=O)N2CCOCC2)cc1
  >57	i
COc1ccc(S(=O)(=O)N2CCSC2c2ccc(OC)c(OC)c2)cc1 (centres undefined)
  >57	i
CCCc1cc(C(=O)Nc2cccnc2)no1
  .	i
O=C(COc1ccc(-c2nnco2)cc1)N1CCN(S(=O)(=O)c2ccccc2)CC1
  >57	i
COc1ccc(OC)c(C2/C(=C(\O)c3ccc(OC)c(Cl)c3)C(=O)C(=O)N2CCN(C)C)c1 (centres undefined)
  >26	.
CCCCOCCCNC(=O)Cc1cccs1
  .	i
CCOC(=O)N1CCC(N2CCN(c3cc(C)ccc3C)CC2)CC1
  .	i
Cn1c(=O)c2cc(S(=O)(=O)N3CCOCC3)ccc2n(C)c1=O
  >57	i
N#CCOc1nc(N2CCOCC2)nc(N2CCOCC2)n1
  >57	i
CC(C)c1nc2n[nH]c(N)c2c2c1CCCC2
  >26	.
C[N@@+]1(CC[N@@+]2(C)CCC[C@H]2c2cccnc2)CCC[C@@H]1c1cccnc1
  .	i
Oc1ccc(-c2[nH]ncc2-c2ccc(Cl)cc2)c(O)c1
  >57	i
O=C(COc1ccc(Cl)cc1)NCCCn1ccnc1
  .	i
Cc1[nH]nc2ncc(C(=O)c3ccccc3O)cc12
  >57	i

Compounds listed so far containing a COOH group, in the order listed:
Each structure is followed by: Bst PK mod	YjeE inh
CCCCC(=O)Nc1ccc(Br)cc1C(=O)O
  .	i
CC(C)c1nnc(NC(=O)CCCC(=O)O)s1
  >57	i

The list continues:
Each structure is followed by: Bst PK mod	YjeE inh
c1ccc2c(CNn3cnnc3)cccc2c1
  >57	i
CCOc1cc(-c2nc(-c3ccc(C)nc3OCC)no2)cc(OCC)c1OCC
  >57	i
O=C1c2ccccc2C(=O)N1c1ccc(-c2nc3ccccc3o2)cc1
  .	i
O=c1[nH]c2ccc(S(=O)(=O)NCc3ccccn3)cc2s1
  >57	i
CCN1CCN(C(=O)Nc2cccc3ccccc23)CC1
  .	i
CCC(=O)Nc1ccc(NC(=O)Cc2ccccc2)cn1
  >57	i
CCCCCOc1ccc(C(=O)NC(CCC)C(=O)O)cc1 (centres undefined)
  >57	i
Cc1cc(Nc2cccc(F)c2)nc(-c2ccccc2O)n1
  i	i
N#CC(C(N)=O)=C1CCC2(CC1)OCCCCO2
  >57	i
O=C(O)Cn1c(=O)oc2cc(S(=O)(=O)N3CCOCC3)ccc21
  .	i
CCc1ccc(CCC(=O)Nc2nnc(C)s2)o1
  .	i
O=c1c2cccnc2[nH]c(=S)n1CCCN1CCN(c2ccccc2F)CC1
  >57	i
Cc1cc(NC(=O)c2cccc(S(=O)(=O)N3CCCC3)c2)no1
  >57	i
CS(=O)(=O)c1ccc(/C=N\NC(N)=S)cc1
  .	i
CCOCCN(C(=O)COC)c1cccc(OC)c1
  >26	.
OC(CNCc1ccco1)COc1ccccc1 (centres undefined)
  .	i
O=c1[nH]c2[nH]c(=S)[nH]c(=S)c2[nH]1
  .	i
C[C@@H]1CC2(OC(O)[C@]3(C)O[C@H]23)O[C@H]2C[C@@]3(C)[C@@H]4CC[C@H]5C(C)(C)C(O[C@@H]6OC[C@@H](O)[C@H](O)[C@H]6O)CC[C@@]56C[C@@]46CC[C@]3(C)[C@@H]12 (some centres undefined)
  .	i
CCOc1ccccc1C1C(C#N)=C(SCC(=O)OC)NC(=O)C1C(=O)OC (centres undefined)
  >57	i
Cc1cnc(CNc2nc(-c3ccc(N(C)C)cc3)nc3ccccc23)cn1
  .	i
COC(=O)NC1CCS(=O)(=O)C1 (centres undefined)
  >57	i
COc1ccccc1NC(=O)C1=C(C)Nc2nc(CCCO)nn2C1c1ccc2c(c1)OCO2 (centres undefined)
  >57	i
C[C@](N)(COP(=O)(O)O)C(=O)O
  .	i
CC(=O)Nc1nnc(C)s1
  .	i
CCCCCCCCCCCCCCCCCC(=O)NC[C@@H](COP(=O)([O-])OCC[N+](C)(C)C)OCC
  .	i
COc1ccc(C(=O)NCCn2cc(SCC(=O)N3CCOCC3)c3ccccc32)cc1
  >57	i
COC(=O)c1ccc(C(NC(=O)OCc2ccccc2)/C(=C/[C@@H](C)C(=O)N(C)Cc2cccnc2)c2cccnc2)cc1 (some centres undefined)
  .	i
CC(=O)c1cc(Cl)ccc1OC(=O)c1ccco1
  .	i
c1ccc(-c2noc(-c3cccc4ccccc34)n2)nc1
  9.6*	i
Nc1ccccc1NC(=O)c1ccccc1N
  >57	i
O=C(O)CSc1nnc(CNc2cccc(C(F)(F)F)c2)n1Cc1ccco1
  >57	i
O=C(CSc1nnc(-c2cccc(S(=O)(=O)N3CCCCC3)c2)o1)c1ccc[nH]1
  >57	i
CCOc1ccccc1Nc1ncccc1C(=O)N1CCCC1
  >57	i
Cc1c(NC(=O)C2(c3ccccc3)CCOCC2)c(=O)n(-c2ccccc2)n1C
  >57	i
N=c1n(-c2ccccc2)c(O)cc(=O)n1-c1ccccc1
  .	i
CCOc1ccc(-n2c(Cc3cc(=O)[nH]c(=O)[nH]3)nnc2SCC)cc1
  >57	i
CCCCN(CCCC)S(=O)(=O)c1ccc(OC)c2ncccc12
  >57	i
O=C1CC(c2ccccc2)n2nc(NC(=O)c3ccccn3)nc2N1 (centres undefined)
  >57	i
CN1CCN(C(=O)c2ccc(CN3CCOCC3)cc2)CC1
  .	i
COc1ccc(Cc2nnc(Nc3ccc(C)cc3C)[nH]c2=O)cc1
  >57	i
Cn1c(=O)c2c(SCc3cccc(C(F)(F)F)c3)nc(-c3ccco3)nc2n(C)c1=O
  >57	i
O=C(Nc1ccccn1)NC12CC3CC(CC(C3)C1)C2
  >57	i
O=c1c(-c2ccccc2)nc2cnc(N3CCNCC3)nc2n1C1CC1
  .	i
Cc1cccc(N(C)C(=O)CCS(=O)(=O)c2cccc3nonc23)c1
  >57	i
CCOC(=O)C1=C(O)C(=O)N(c2ccc(S(N)(=O)=O)cc2)C1c1ccc(OC)cc1 (centres undefined)
  >57	i
C[C@@H](CC(=O)O)[C@@H](N)C(=O)O
  .	i
COc1ccc(N(CC(=O)N2CCc3ccccc32)S(=O)(=O)c2c(C)n[nH]c2C)cc1
  >57	i
Fc1ccccc1C(c1nnnn1Cc1ccc2c(c1)OCO2)N1CCN(Cc2ccco2)CC1 (centres undefined)
  >57	i
O[C@H](c1cc(C(F)(F)F)nc2c(C(F)(F)F)cccc12)[C@H]1CCCCN1
  .	i
COc1cccc2cc(C(=O)C3=C(O)C(=O)N(CCCN(C)C)C3c3ccncc3)oc12 (centres undefined)
  >57	i
O=C(O)CSSCC(=O)O
  .	i
Cc1[nH]c(=O)[nH]c(=O)c1S(=O)(=O)NCC12CC3CC(CC(C3)C1)C2
  >57	i
COc1cccc(-c2cc(C(=O)N3CCCCC3C)no2)c1 (centres undefined)
  .	i
COC(=O)c1cc(Cl)c(N)cc1OC
  >57	i
O=S1(=O)CCN2C(c3ccc4c(c3)CCCC4)=CSC2=N1
  >57	i
Cc1[nH]nc2c1C(c1ccc(Cl)cc1)C(C#N)=C(N)O2 (centres undefined)
  >57	i
COCCNS(=O)(=O)c1ccc(-c2ccc(S(=O)(=O)NCCOC)cc2)cc1
  >57	i
CCOC(=O)c1ccc2c(c1)N(CC(=O)N1CCCC1)C(=O)C(C)(C)O2
  >57	i
N[C@H](C(=O)O)C1[C@H](C(=O)O)[C@H]1C(=O)O (some centres undefined)
  .	i
COCCSc1nc2c(c(=O)[nH]c(=O)n2C)n1Cc1cccc(C)c1
  .	i

Later entries.
Each structure is followed by: Bst PK mod	YjeE inh
CCCc1nnc(SCC(=O)N2CCOCC2)n1Cc1ccco1
  >57	i
COc1cccc(C=NC=Nc2cccc(OC)c2)c1
  .	i
C=CCn1c(SCC(=O)Nc2ccc3c(c2)OCO3)nnc1-c1ccccc1OC
  >57	i
CCOC(=O)NC(CC(=O)O)c1ccc(OC)cc1 (centres undefined)
  >57	i
Cc1ccccc1N1C(=O)C(Cl)=C(N2CCCCCC2)C1=O
  .	i
CC(=O)N=c1ncn(CC(COC(C)=O)OC(C)=O)c2nc[nH]c12 (centres undefined)
  >57	i
CN(CCNC(=O)CCNC(=O)Cn1ccc2ccccc2c1=O)Cc1ccccc1
  >57	i
O=C(Nc1cccc(F)c1)NC1CCCCC1
  >57	i
Cc1cc(Cl)ccc1OCC(=O)NCCCN1CCOCC1
  >57	i
Cc1cc2ccccc2n1CCNC(=O)c1cccs1
  .	i
